B2AR ag – human beta-2 adrenergic receptor agonism by FAP; P07550; Am2.2-beta2AR cells, FAP receptor internalization, flow cytometry; reference of the scale not given here; response, % (no concentration beside the values); 0.43% of 340,000 active; AID 504454;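 active = response above a set limit, near 3 SD of response in nonfluorescent compounds, cut at about 42% in these data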;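 note: stock transfer was 100 nL into about 11 µL; a reference agonist was the positive control; negative values mostly stem from fluorescent compounds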
Target sequence (P07550 whole entry, looked up): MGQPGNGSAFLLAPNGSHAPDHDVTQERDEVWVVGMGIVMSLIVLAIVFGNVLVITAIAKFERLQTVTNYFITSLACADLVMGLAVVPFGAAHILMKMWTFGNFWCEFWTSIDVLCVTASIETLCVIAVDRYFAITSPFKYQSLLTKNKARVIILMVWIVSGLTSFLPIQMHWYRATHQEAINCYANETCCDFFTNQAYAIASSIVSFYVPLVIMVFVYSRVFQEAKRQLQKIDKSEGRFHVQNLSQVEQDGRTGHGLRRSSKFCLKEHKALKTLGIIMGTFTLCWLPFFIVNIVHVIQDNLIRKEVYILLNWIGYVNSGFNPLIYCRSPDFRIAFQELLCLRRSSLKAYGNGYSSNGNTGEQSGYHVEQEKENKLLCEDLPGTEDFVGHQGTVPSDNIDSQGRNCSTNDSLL
Beta apoptosis – beta cell apoptosis inhibition; INS-1E cytokine-induced death, ATP luminescence, 48 h; percent of positive-control rescue, neutral wells zero; protection from apoptosis, % (no concentration beside the values); 0.8% of 300,000 active;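 active = all replicates at 75% or more, or half of them and the mean; inconclusive = half reach 75% but not the mean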;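 note: 0% = cytokine-treated negative control wells and 100% = positive control rescue; higher means more ATP so stronger rescue from cytokine killing; wells of about 40 µL received 100 nL stock; the first replicate is given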
Calb FLC – C. albicans growth modulation with fluconazole | growth inhibition, % (test concentration not listed) | C. albicans CaCi-2 (fluconazole-resistant clinical isolate) + fluconazole, Alamar Blue growth, 48 h | AID 1979 | 0.57% of 300,000 active;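 active = most replicates above 75%; inconclusive = exactly half above 75%; inactive = most below 75%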;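 note: all wells also contain fluconazole at 8 µg/ml as a sub-toxic cotreatment; 0% = median of DMSO wells and 100% = median of geldanamycin control wells; wells of about 8 µL received 7.5 nL stock; the first replicate is given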
LANA-H2A inh – blocks KSHV LANA binding to histone H2A/H2B. inhibition, % (test concentration not listed). AID 2629. Q9QR71. cell-free LANA-H2A/H2B peptide, fluorescence polarization. 0.6% of 320,000 active; in the data active = inhibition mostly above about 10%, no sharp cut-off; inactive = mostly below about 6.7%;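 note: stock transfer was 7.5 nL into about 10 µL; 0% = median of vehicle wells and 100% = median of positive control wells; one replicate is shown; the record names a cut of 25% in any replicate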
UCH37 DUB inh – inhibitors of human deubiquitinating enzyme UCH37; Q9Y5K5; purified proteasome/UCH37, Ub-AMC cleavage fluorescence; inhibition, % (no concentration beside the values); 0.33% of 330,000 active; AID 588478;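 active = mean of two replicates above 20%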;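 note: 0% = compound-free wells with enzyme and 100% = wells lacking proteasome; stock transfer was 100 nL into about 20 µL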
Target sequence (Q9Y5K5 whole entry, looked up): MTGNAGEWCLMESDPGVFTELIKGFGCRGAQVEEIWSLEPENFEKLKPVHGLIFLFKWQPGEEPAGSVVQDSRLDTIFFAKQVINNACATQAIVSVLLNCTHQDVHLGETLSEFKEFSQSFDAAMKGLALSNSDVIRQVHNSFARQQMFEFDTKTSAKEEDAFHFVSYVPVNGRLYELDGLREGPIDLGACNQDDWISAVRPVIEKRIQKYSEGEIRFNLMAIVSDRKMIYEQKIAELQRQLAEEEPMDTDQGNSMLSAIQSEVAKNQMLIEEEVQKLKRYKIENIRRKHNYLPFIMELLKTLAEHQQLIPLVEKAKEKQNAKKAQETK
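Test system – human UCH37 enzyme supplied as purified proteasome complex · Incubation – 30 min preincubation with enzyme, 25 min cleavage at room temperature · Detection – AMC fluorescence from Ub-AMC cleavage, excitation 355 nm, emission 460 nm · Benchmarks – no-proteasome wells (full inhibition) and compound-free wells (no inhibition)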
T cruzi inh – T. cruzi replication inhibition | 1.4% of 300,000 active | inhibition, % (no concentration beside the values) | T. cruzi beta-gal in NIH3T3, luminescence, 90 h;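 active = mean inhibition across valid replicates above about 55%, limit read from the data; inconclusive = mean below that limit but half or more replicates reach it; inactive = mean below it, under half of replicates reach it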;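 note: signal also drops with host cell toxicity which is not excluded here; 0% = plate median of DMSO wells and 100% = zero luminescence signal; higher percent means less beta-gal luminescence so fewer parasites; stock transfer was 50 nL into about 50 µL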
RanGTP-Impb inh – disruptors of Ran-importin-beta complex formation – biochemical, FRET, CFP-Ran, YFP-importin-beta, homogeneous, primary screen; cell-free CFP-Ran/YFP-importin-beta FRET ratio; inhibition, % (no concentration beside the values); 1.1% of 300,000 active; AID 2216;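 active = most replicates above 15%; inconclusive = exactly half above 15%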;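 note: 0% = DMSO wells and 100% = Ran loaded with GDP instead of GTP; wells of about 40 µL received 100 nL stock; the first replicate is given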
A1 inh – inhibitors of the anti-apoptotic protein A1, read as caspase activation; MEF A1-2A-BIM cells, Caspase-Glo 3/7 luminescence, 3 h; percent of clofoctol response, vehicle zero; caspase activation, % (concentration not given with the values); 0.066% of 330,000 active; AID 2462;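 active = over half of replicate activation scores above 10%, or exactly half above 10 with the replicate mean above 10; inconclusive = replicate mean below 10 yet half the replicates above 10; inactive = over half of replicates below 10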;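 note: wells of about 30 µL received 50 nL stock; many hits fall short of the cut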
* hit, by the source's call; & = joins results of further samples.

Screening COc1ccc(NC(=O)c2ccco2)cc1NC(=O)COc1ccccc1[N+](=O)[O-] returned B2AR ag -2.7, Beta apoptosis 11.3, Calb FLC 10.8, LANA-H2A inh 2.4, UCH37 DUB inh 2.8, T cruzi inh 5.0, RanGTP-Impb inh 0.9 and A1 inh 0.6.
`COCC1CCCN(C(=O)c2cc(COc3cncc(Cl)c3)on2)C1` (stereo unspecified) gave B2AR ag -4.0, Beta apoptosis -0.8, Calb FLC inconclusive, LANA-H2A inh 3.2, UCH37 DUB inh 0.3, T cruzi inh 2.7, RanGTP-Impb inh 5.3 and A1 inh 0.2.
`Cn1c(NC(=O)/C=C\c2ccccc2)cc(=O)n(C)c1=O` gave B2AR ag -29.2, Beta apoptosis -2.5, Calb FLC 4.6, LANA-H2A inh 0.3, UCH37 DUB inh 9.3, T cruzi inh -34.9, RanGTP-Impb inh -0.2 and A1 inh -0.4.
`CCOCc1nnc(NC(=O)c2ccc(OC)cc2)s1` gave B2AR ag -6.7, Beta apoptosis -6.1, Calb FLC 0.1, LANA-H2A inh -2.8, UCH37 DUB inh 3.2, T cruzi inh -4.0, RanGTP-Impb inh 0.3 and A1 inh -2.8.
For Cc1ccc(-c2[nH]n3c(=O)c4c(nc3c2C)CCCC4)cc1 the results were B2AR ag 8.7, Beta apoptosis -1.0, Calb FLC 19.9, LANA-H2A inh -0.1, UCH37 DUB inh -20.0, T cruzi inh 14.1, RanGTP-Impb inh inconclusive and A1 inh 0.2.
CCCCc1nnc(NC(=O)c2ccc(N3CCCC3=O)cc2)s1 was read as B2AR ag -5.6, Calb FLC 13.8, LANA-H2A inh -0.6, UCH37 DUB inh 1.7, T cruzi inh 7.2, RanGTP-Impb inh 3.0 and A1 inh 1.1.
COC(=O)c1ccc(CN2CCCC(C(=O)c3ccccc3OC)C2)cc1 (stereo unspecified) was read as B2AR ag -2.2, Beta apoptosis -6.5, Calb FLC -4.4, LANA-H2A inh 2.6, UCH37 DUB inh 0.8, T cruzi inh 22.2, RanGTP-Impb inh 2.8 and A1 inh -0.5.
Screening Cc1noc(C)c1S(=O)(=O)Nc1ccc(C(=O)NC2CCCCC2)cc1 returned B2AR ag 2.3, Beta apoptosis 1.5, Calb FLC 3.4, LANA-H2A inh 9.6, UCH37 DUB inh 2.6, T cruzi inh -12.3, RanGTP-Impb inh -2.0 and A1 inh -0.8.
For O=C1CCN(CCc2ccccc2)CCN1[C@H](CSc1ccccc1)c1ccccc1 the results were B2AR ag 3.1, Beta apoptosis 4.8, Calb FLC -8.5, LANA-H2A inh 1.8, UCH37 DUB inh 2.2, T cruzi inh 12.4, RanGTP-Impb inh -1.4 and A1 inh -0.1.
For Cc1cc(C(=O)Nc2ccccc2C)c2ccccc2n1 the results were B2AR ag 0.0, Beta apoptosis 1.0, Calb FLC 9.9, LANA-H2A inh -5.6, UCH37 DUB inh 3.2, T cruzi inh -6.0, RanGTP-Impb inh 2.7 and A1 inh 0.2.
`C/C(=N\Nc1ccc(S(=O)(=O)Nc2ccc(Cl)cc2)cc1[N+](=O)[O-])c1ccc(N2CCOCC2)cc1` gave B2AR ag -1.1, Beta apoptosis 18.2, Calb FLC 5.9, LANA-H2A inh 2.9, T cruzi inh 16.2, RanGTP-Impb inh -0.7 and A1 inh 0.4.
Cc1nc(-c2ccccc2)sc1C1(C)CC(c2ccc(OC(F)(F)F)cc2)=NO1 (stereo unspecified) was read as B2AR ag 1.3, Beta apoptosis -17.9, LANA-H2A inh -3.5, UCH37 DUB inh 4.3 and A1 inh -0.2.
`O=C(CBr)c1ccc([N+](=O)[O-])c(CS(=O)(=O)c2ccc(Cl)cc2)c1` gave B2AR ag 11.3, Beta apoptosis -2.2, Calb FLC 8.1, LANA-H2A inh -1.6, T cruzi inh -23.7, RanGTP-Impb inh 4.9 and A1 inh 0.3.
Screening O=[N+]([O-])c1cccnc1NCCNc1ncc(C(F)(F)F)cc1Cl returned B2AR ag -8.9, Beta apoptosis -0.6, Calb FLC -13.1, LANA-H2A inh 3.0, UCH37 DUB inh 2.5, T cruzi inh 0.1, RanGTP-Impb inh 0.4 and A1 inh -2.9.
COc1cc(CN2CCC(C(=O)NCCC(C)C)CC2)ccc1OCc1ccccc1 was read as B2AR ag -8.2, Beta apoptosis 1.3, Calb FLC -9.4, LANA-H2A inh 0.7, UCH37 DUB inh 5.8, T cruzi inh 28.4, RanGTP-Impb inh 1.1 and A1 inh -0.4.
For Nc1nnn(CC(=O)N/N=C/c2cccc(Cl)c2)n1 the results were B2AR ag -5.9, Beta apoptosis -1.9, Calb FLC -2.6, LANA-H2A inh -3.3, T cruzi inh -0.2, RanGTP-Impb inh inconclusive and A1 inh 0.8.
CC(C)n1nnnc1SCC(=O)Nc1ccc2c(c1)OCCO2 was read as Beta apoptosis 0.8, Calb FLC 10.6, LANA-H2A inh -4.7, UCH37 DUB inh 5.7, T cruzi inh -10.0, RanGTP-Impb inh 0.5 and A1 inh 0.0.
Screening CCCCC(=O)NC(=S)Nc1cccc(NC(=O)c2ccccc2)c1 returned B2AR ag -1.9, Calb FLC 42.3, LANA-H2A inh -1.8, UCH37 DUB inh 1.3, T cruzi inh 4.1, RanGTP-Impb inh -2.8 and A1 inh 0.9.
Screening COc1ccccc1-c1nnc(NC(=O)c2ccc3c(c2)OCO3)s1 returned B2AR ag 10.4, Beta apoptosis -4.8, Calb FLC -1.3, LANA-H2A inh 0.2, UCH37 DUB inh -0.5, T cruzi inh -9.7, RanGTP-Impb inh inconclusive and A1 inh 0.7.
For COCCOC(=O)C1=C(C)N=C2SCCC(=O)N2C1c1cccc(Br)c1 (stereo unspecified) the results were B2AR ag -0.1, Beta apoptosis 1.8, Calb FLC -10.0, LANA-H2A inh 0.1, UCH37 DUB inh 6.6, T cruzi inh -20.1, RanGTP-Impb inh -2.2 and A1 inh -0.4.
Screening O=C(C(Cc1ccccc1)n1cccc1)N1CCN(c2ccccc2)CC1 (stereo unspecified) returned B2AR ag -2.4, Beta apoptosis -0.9, Calb FLC 1.2, LANA-H2A inh -1.9, UCH37 DUB inh 2.3, T cruzi inh 13.1, RanGTP-Impb inh -5.9 and A1 inh -0.7.
CC(C)OC(=O)C1CC=CCC1C(=O)Nc1ccc(Cl)cc1 (stereo unspecified) was read as B2AR ag 14.8, Beta apoptosis -8.4, Calb FLC -9.1, LANA-H2A inh -3.3, UCH37 DUB inh 5.1, T cruzi inh -6.7, RanGTP-Impb inh 4.3 and A1 inh 0.9.
`COCCn1nnnc1C(CC(C)C)N1CCN(c2nc3ccccc3s2)CC1` (stereo unspecified) gave B2AR ag -1.4, Beta apoptosis 3.4, Calb FLC 1.8, LANA-H2A inh -4.1, UCH37 DUB inh 0.2, T cruzi inh 12.4, RanGTP-Impb inh 0.7 and A1 inh -0.2.
COc1ccc(NC(=O)NCCN2CCCCC2)cc1 was read as B2AR ag -6.9, Beta apoptosis -1.9, Calb FLC 3.0, LANA-H2A inh -0.9, UCH37 DUB inh 0.5, T cruzi inh -3.7, RanGTP-Impb inh 0.5 and A1 inh 1.3.

Taken from the results shown for reference:
`COCCn1nnnc1C(CC(C)C)N1CCN(c2nc3ccccc3s2)CC1` (stereo unspecified) gave B2AR ag -1.4, Beta apoptosis 3.4, Calb FLC 1.8, LANA-H2A inh -4.1, UCH37 DUB inh 0.2, T cruzi inh 12.4, RanGTP-Impb inh 0.7 and A1 inh -0.2.
COc1ccc(NC(=O)NCCN2CCCCC2)cc1 was read as B2AR ag -6.9, Beta apoptosis -1.9, Calb FLC 3.0, LANA-H2A inh -0.9, UCH37 DUB inh 0.5, T cruzi inh -3.7, RanGTP-Impb inh 0.5 and A1 inh 1.3.

New compounds follow.
For O=C(COC(=O)Cc1ccc([N+](=O)[O-])cc1)NC1CCCCCC1 the results were B2AR ag -4.3, Beta apoptosis -5.9, LANA-H2A inh 2.3, UCH37 DUB inh 6.3 and A1 inh -0.5.
For CC(=O)N1c2ccc(S(=O)(=O)N3CCC(C(=O)N4CC(C)CC(C)C4)CC3)cc2CC1C (stereo unspecified) the results were B2AR ag 8.1, Beta apoptosis 3.0, Calb FLC -1.5, LANA-H2A inh -0.3, UCH37 DUB inh -0.6, T cruzi inh -7.1, RanGTP-Impb inh -0.7 and A1 inh 0.2.
Screening COc1ccc(C=O)cc1Cn1ccnc1C returned B2AR ag -0.2, Beta apoptosis -8.4, Calb FLC -11.5, LANA-H2A inh 5.3, UCH37 DUB inh 1.0, T cruzi inh 3.8, RanGTP-Impb inh 4.7 and A1 inh -0.6.
Screening O=C(CCCN1C(=O)c2ccccc2C1=O)Oc1ccc(Cl)cc1 returned B2AR ag -3.1, Beta apoptosis -3.0, Calb FLC -1.3, LANA-H2A inh 2.5, UCH37 DUB inh 2.0, T cruzi inh -26.5, RanGTP-Impb inh 2.4 and A1 inh 0.2.
COc1ccc(-c2nnc(SCC(=O)NC3CCCCC3)o2)cc1OC was read as B2AR ag -3.8, Beta apoptosis -1.7, Calb FLC -2.4, LANA-H2A inh -1.4, UCH37 DUB inh 1.2, T cruzi inh -7.9, RanGTP-Impb inh 1.9 and A1 inh -0.8.
`NC(=O)C1(N2CCCCC2)CCN(CC(=O)Nc2ccccc2Sc2ccccc2)CC1` gave B2AR ag -1.8, Beta apoptosis 0.2, Calb FLC 5.1, LANA-H2A inh 2.4, UCH37 DUB inh 2.3, T cruzi inh 10.8, RanGTP-Impb inh 2.9 and A1 inh -0.5.
Screening NS(=O)(=O)c1ccc(N2CCOCC2)c(C(=O)NCc2cccs2)c1 returned B2AR ag -2.4, Beta apoptosis -8.0, LANA-H2A inh -1.8, UCH37 DUB inh -0.4 and A1 inh -0.3.
`O=c1/c(=C\c2cc([N+](=O)[O-])cc([N+](=O)[O-])c2O)sc2nc3ccccc3n12` gave B2AR ag -6.6, Beta apoptosis -9.1, LANA-H2A inh 3.3 and A1 inh -0.3.
`Cc1ccc(-c2cc(C(=O)O)c3cc(Br)ccc3n2)s1` gave B2AR ag 19.1&12.7, Beta apoptosis 0.8&1.3, Calb FLC -2.5&-2.4, LANA-H2A inh 4.6&7.0, UCH37 DUB inh -321.7, T cruzi inh -1.0&-3.2, RanGTP-Impb inh 7.6&-3.3 and A1 inh 0.2&-0.9.
For C(=C\c1ccccc1)/C=N/Nc1nc2ccccc2s1 the results were B2AR ag -10.8, Beta apoptosis -2.2, Calb FLC -33.3, LANA-H2A inh 0.1, T cruzi inh 2.5, RanGTP-Impb inh 4.0 and A1 inh -2.4.
Screening C=CCNc1nc2c(c(=O)n(C)c(=O)n2C)n1CC returned B2AR ag 4.1, Calb FLC -0.1, LANA-H2A inh 8.1, UCH37 DUB inh 2.2, T cruzi inh -12.8, RanGTP-Impb inh 0.1 and A1 inh 0.0.
`CC1CCN(C(=O)c2ccc3c(c2NCCO)C(=O)c2ccccc2C3=O)CC1` gave B2AR ag -4.0, Beta apoptosis 14.8, Calb FLC 11.1, LANA-H2A inh -2.6, UCH37 DUB inh 8.4, T cruzi inh 23.3, RanGTP-Impb inh 4.0 and A1 inh 0.2.
COc1ccc(/C=N/NC(=O)CN2CCSCC2)cc1C was read as B2AR ag 0.8, Beta apoptosis -4.5, Calb FLC inconclusive, LANA-H2A inh -6.8, T cruzi inh 5.8, RanGTP-Impb inh -1.2 and A1 inh -0.2.
